KCNQ2 inh – KCNQ2 channel blockers in CHO-K1 cells – cell-based, FluxOR thallium flux, B-score, primary screen (AID 2156); B-score at 10 µM; 20 min; active compounds read low; only compounds with negative scores are shown here; some inactives read as strong as hits; hit rate 1.1% among 310,000; O88943;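 active = fluorescence ratio B-score at most minus 3 library SDs, with starting brightness B-score within 2 library SDs, cut at about -5.5 in these data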
Target sequence (O88943 whole entry, looked up): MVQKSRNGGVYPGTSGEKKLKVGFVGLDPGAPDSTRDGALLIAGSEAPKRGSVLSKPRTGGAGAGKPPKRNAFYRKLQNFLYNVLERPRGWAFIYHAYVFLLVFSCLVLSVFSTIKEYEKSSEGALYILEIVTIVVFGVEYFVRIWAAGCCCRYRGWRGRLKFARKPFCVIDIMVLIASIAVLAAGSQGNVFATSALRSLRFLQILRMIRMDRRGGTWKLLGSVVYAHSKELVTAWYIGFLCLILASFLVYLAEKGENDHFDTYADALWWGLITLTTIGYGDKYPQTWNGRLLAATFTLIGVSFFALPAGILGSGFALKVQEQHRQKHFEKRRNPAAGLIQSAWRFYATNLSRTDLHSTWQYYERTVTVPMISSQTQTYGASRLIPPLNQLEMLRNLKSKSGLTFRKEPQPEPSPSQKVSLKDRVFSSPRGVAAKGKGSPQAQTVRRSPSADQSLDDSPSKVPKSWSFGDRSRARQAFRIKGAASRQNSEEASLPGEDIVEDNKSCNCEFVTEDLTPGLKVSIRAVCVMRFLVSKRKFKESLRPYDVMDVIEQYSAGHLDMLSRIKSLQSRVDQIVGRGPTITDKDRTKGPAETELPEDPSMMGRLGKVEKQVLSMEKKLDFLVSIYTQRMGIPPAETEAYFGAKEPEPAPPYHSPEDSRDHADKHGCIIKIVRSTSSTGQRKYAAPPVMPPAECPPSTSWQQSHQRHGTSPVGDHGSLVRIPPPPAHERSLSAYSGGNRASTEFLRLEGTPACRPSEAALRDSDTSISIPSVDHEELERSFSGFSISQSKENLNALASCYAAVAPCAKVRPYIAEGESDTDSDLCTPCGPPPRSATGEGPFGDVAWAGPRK
KCNQ2 inh baseline – further read-out of KCNQ2 inh, marked with its call; B-score; measured here: initial fluorescence intensity artifact check;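 brightness before thallium and not channel activity; 0 = typical well and far values either way flag optical interference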
Starred values were filed as active, the others as inactive; i = inactive.

SMILES	KCNQ2 inh	KCNQ2 inh baseline
CCNC(=S)N/N=C/c1ccccc1[N+](=O)[O-]	i	-1.9
CCn1cc(C(=O)OCC(=O)Nc2cccc(Cl)c2Cl)c(=O)c2ccc(C)nc21	i	0.16
Cc1cc(N2CCC(C)CC2)nc2ccc(N3C(=O)CCC3=O)cc12	i	0.85
COc1cc(CNCCSc2nnnn2C)cc(Br)c1OCc1ccccc1F	i	-0.96
Cc1c(C(=O)N2CCN(c3ccccc3)CC2)oc2c(F)cccc12	i	-1.5
O=C(CN1N=C(c2ccc(Cl)cc2)CCC1=O)NCCN1CCc2ccccc2C1	i	0.44
Cc1cccc(NC(=S)NC2CC3CCCC(C2)N3Cc2ccccc2)c1C (configuration not stated)	i	0.49
Cn1c(SCC(=O)N/N=C/c2ccc([N+](=O)[O-])s2)nnc1-c1ccccc1	i	0.12
Cc1cccc(-n2ccnc2CN2CCC(CO)(Cc3ccccc3)CC2)c1	i	2.9
CCn1c(O)c(/C=C2\C=NN=C2c2ccccc2)sc1=S	i	-0.85
COc1cccc2c1C(=O)c1c(O)c3c(c(O)c1C2=O)C[C@](O)(C(C)=O)C[C@H]3O[C@@H]1C[C@@H](N)[C@@H](O)[C@@H](C)O1	i	50
C[C@@H](C(=O)NCc1ccccc1)[C@@H]1C[C@@]1(C)[C@@H](NC(=O)OCc1ccccc1)c1ccccc1	i	0.66

Next section; it opens with the seven that closed the last part.
SMILES	KCNQ2 inh	KCNQ2 inh baseline
O=C(CN1N=C(c2ccc(Cl)cc2)CCC1=O)NCCN1CCc2ccccc2C1	i	0.44
Cc1cccc(NC(=S)NC2CC3CCCC(C2)N3Cc2ccccc2)c1C (configuration not stated)	i	0.49
Cn1c(SCC(=O)N/N=C/c2ccc([N+](=O)[O-])s2)nnc1-c1ccccc1	i	0.12
Cc1cccc(-n2ccnc2CN2CCC(CO)(Cc3ccccc3)CC2)c1	i	2.9
CCn1c(O)c(/C=C2\C=NN=C2c2ccccc2)sc1=S	i	-0.85
COc1cccc2c1C(=O)c1c(O)c3c(c(O)c1C2=O)C[C@](O)(C(C)=O)C[C@H]3O[C@@H]1C[C@@H](N)[C@@H](O)[C@@H](C)O1	i	50
C[C@@H](C(=O)NCc1ccccc1)[C@@H]1C[C@@]1(C)[C@@H](NC(=O)OCc1ccccc1)c1ccccc1	i	0.66
COc1ccc(/C=C2\CCC/C(=C\C=N\N(C)C)C2=O)cc1	i	-0.65
CCOCCCn1c(SCC(=O)Nc2cc(OC)ccc2OC)nc2ccccc2c1=O	i	0.02
CC(=O)Nc1ccc(C(=O)N(C)C(C(=O)Nc2ccc(C)cc2)c2ccccn2)cc1 (configuration not stated)	i	-0.86
COc1ccc(CC(=O)N2CC3(C)CC2CC(C)(C)C3)cc1 (configuration not stated)	i	-1.9
COc1ccc(C(C(=O)Nc2ccc(C(C)C)cc2)N(Cc2ccco2)C(=O)CC2NC(=O)NC2=O)cc1 (configuration not stated)	i	-0.93
COc1ccc(Cn2nnnc2C(c2ccccc2Cl)N2CCN(C3CCCC3)CC2)cc1 (configuration not stated)	i	-0.19
O=C(Nc1ccc(N2CCN(C(=O)c3ccco3)CC2)cc1)c1cccs1	i	0.57
Cc1cc(C(=O)N/N=C/c2cccc(OC(=O)c3cccc(Br)c3)c2)n[nH]1	i	0.41
COc1ccc(C)cc1S(=O)(=O)Nc1ccc(-n2c(C)nc3ccccc3c2=O)cc1	i	0.49
Cc1cc(OCC(=O)Nc2ccc(CN3CCOCC3)cc2)c2c(C)c(C)c(=O)oc2c1	i	0.79
CCCC(=O)NCc1ccccc1Cl	i	1.6
Cc1cc(OCC(=O)Nc2ccncc2)c(C)cc1Br	i	1.6
CCCCN(CC)S(=O)(=O)N1CCC(C(=O)NCCCN2CCOCC2)CC1	i	-0.79
COc1ccc(S(=O)(=O)N2CCN(C(=O)c3c(C)nn(-c4ccccc4)c3Cl)CC2)cc1	i	-1.6
Cc1ccc(NC(=O)CSc2nc(=O)n(CCCN3CCOCC3)c3c2CCCC3)cc1F	i	-0.36
CCCn1c(=O)c(C(=O)NCc2ccccc2Cl)c(O)c2ccccc21	i	0.88
CC(=O)N1CCN(c2nc(CC(C)C)c3c(c2C#N)CCC3)CC1	i	0.51
O=S(=O)(Cc1cc(NCc2ccccc2)nc(-c2ccncc2)n1)c1ccccc1	i	-0.39
CC(C)(C)C(=O)Nc1nnc(-c2ccncc2)o1	i	0.46
CCOC(=O)N1CCC(NC(=O)Cn2cc3c(n2)CCCCC3)CC1	i	-0.41
COc1cc(CCC(=O)Nc2cnc3ccccc3c2)cc(OC)c1OC	i	4.5
COC(=O)c1sc2nc(C)c([N+](=O)[O-])c(C)c2c1N	i	0.14
Cc1ccc(S(=O)(=O)Oc2ccccc2N2C(=O)C3CC=CCC3C2=O)cc1 (configuration not stated)	i	1.6
CC1(C)C2CC=C(/C=N/NC(=O)C3CC3)C1C2 (configuration not stated)	i	2.2
Cc1ccc(S(=O)(=O)n2nccc2-c2c(-c3ccccc3)noc2C)cc1	i	0.14
CCN(c1ccccc1)S(=O)(=O)c1cccc(C(=O)NCc2cccnc2)c1	i	1.7
O=c1c2c(nc3cc(-c4cccc(Cl)c4)[nH]n13)CCC2	i	-1.4
O=C1c2cccc3cc(Br)cc(c23)C(=O)N1Nc1ccc(Br)cc1	i	-0.8
Cn1c(C(=O)N2CCCC(C(=O)NCc3ccccc3)C2)cc2sccc21 (configuration not stated)	i	-0.05
COc1cccc(C(=O)NN2CC(O)=C(c3nc(C)cs3)C2=N)c1	i	1.2
COc1ccc(/C=C(\C#N)C(=O)NCCCn2ccnc2)cc1	i	5
O=C(/C=C/c1cccc(F)c1)c1ccc(N2CCOCC2)cc1	i	1.2
COc1ccccc1CNC(=O)C(=O)NCCC1CCCCN1S(=O)(=O)c1cccs1 (configuration not stated)	i	-0.44
Cc1ccc(CSCCNC(=O)CSCc2ccc([N+](=O)[O-])cc2)cc1	i	-1
CCN(CC(=O)Nc1ccccc1SC)Cc1nc2ccccc2c(=O)[nH]1	i	-0.33
CC(=O)N1c2ccc(S(=O)(=O)N3CCCC(C(=O)NC4CCCC(C)C4C)C3)cc2CC1C (configuration not stated)	i	-0.22
O=C(CN1CCCC1)Nc1cccc(Cl)c1	i	-0.81
Cc1ccc(Nc2nc(NCCO)c3ccccc3n2)cc1C	i	-0.91
O=C(NCCc1ccc2c(c1)OCCO2)c1ccc(F)cc1	i	-1.5
CC(C)(C)C(=O)N(Cc1ccc(Cl)cc1)Cc1cccnc1	i	0.43
Cc1ccc(C)c(N2CCN(C(=O)CCCn3ncn4c(cc5occc54)c3=O)CC2)c1	i	-0.3
COCCNC(=O)c1cc(-c2ccc(OC)c(OC)c2)on1	i	0.01
CCN1CCN(C(=O)CSc2cc(=O)n(C)c3ccccc23)CC1	i	-0.77
Clc1ccc(OCCSc2ncccn2)c(Br)c1	i	2.3
CCCCOc1ccc(NC(=O)CN2CCN(CC)CC2)cc1	i	-0.34
CCOC(=O)C1=C(CC)Nc2ccccc2N=C1NC(=O)Nc1ccc(Cl)c(Cl)c1	i	1.6
CCCc1cc(=O)oc2c(CN3CCCC3)c(O)ccc12	i	0.83
O=c1oc2ccccc2c(NC2CCCCC2)c1NS(=O)(=O)c1ccc(Br)cc1	i	1.1
CCOC(=O)C1CCCN(c2oc(-c3ccc(OC)cc3)nc2C#N)C1 (configuration not stated)	i	-0.19
CCOc1ccc(S(=O)(=O)NN)cc1	i	3
COc1ccc(CN(C)S(=O)(=O)c2ccc3c(c2)OCCO3)cc1	i	-0.18
Cc1cc(Cl)ccc1OCC(=O)Nc1ccccc1CO	i	-1.3
CC(C)c1nnc(NC(=O)CC(C)c2ccccc2)s1 (configuration not stated)	i	-1.1
Cn1c(CCCCCN)nc2ccccc21	i	-0.72
O=C(CSc1ncc(-c2ccccc2)[nH]1)Nc1cccc(O)c1	i	1.3
O=C(NNS(=O)(=O)c1ccc(Br)cc1)C1CCCCC1	i	-0.06
Cn1c2ccccc2c2c(C(=O)NCCCN3CCCC3=O)cn(C3CCCCC3)c(=O)c21	i	0.02
C/C=C\C(=O)Nc1cccc(C2=NOC3(C2)C[C@@H](C(N)=O)N(C(=O)CC(c2ccccc2)c2ccccc2)C3)c1 (some centres not stated)	i	-0.13
CC1CC(C)CN(C(=O)C(C)N(C)CC(=O)Nc2ccccc2Cl)C1 (configuration not stated)	i	-2.7
CCOC(=O)C1CCN(C(=O)CCC2CCCC2)CC1	i	0.32
Following part.
SMILES	KCNQ2 inh	KCNQ2 inh baseline
COc1ccc(N(C(C)=O)S(=O)(=O)c2cccc3cccnc23)cc1	i	0.48
Cc1ccc(C(=O)CSc2nc(C)cc(C)c2C(N)=O)cc1	i	2.5
Cc1cccc(OCC(=O)Nc2cc(C)c(C)cc2O)c1	i	0.34
CSc1nc(-c2ccccc2)nc(C(Cl)Cl)n1	i	1.2
CCn1nc(CC(=O)O)c2ccccc2c1=O	i	-0.38
CSc1sc2ccccc2[n+]1CCCS(=O)(=O)[O-]	i	-0.14
CC(C)(C)n1nc2c(c1NC(=O)COc1ccc(Cl)cc1)CSC2	i	3.3
CC12CC3CC(C)(C1)CC(C(=O)N1CCCC1)(C3)C2	i	1.1
COc1ccc(Cl)cc1C(=O)NNC(=O)c1cccnc1	i	1.8
Cc1ccc(C(=O)N2CCN(C)CC2)cc1S(=O)(=O)N1CCCCCC1	i	2.5
CC(C)Cc1ccc(C#N)c(SCC(N)=O)n1	i	2.1
COc1ccc(C2c3ccc(O)cc3Oc3ncn(Cc4ccco4)c(=N)c32)cc1 (configuration not stated)	i	3.4

Shown with bars between the fields: part of the list above
smiles | KCNQ2 inh | KCNQ2 inh baseline
CCN(c1ccccc1)S(=O)(=O)c1cccc(C(=O)NCc2cccnc2)c1 | i | 1.7
O=c1c2c(nc3cc(-c4cccc(Cl)c4)[nH]n13)CCC2 | i | -1.4
O=C1c2cccc3cc(Br)cc(c23)C(=O)N1Nc1ccc(Br)cc1 | i | -0.8

The listing continues.
SMILES	KCNQ2 inh	KCNQ2 inh baseline
COc1cc(NC(C)CCc2ccccc2)cc(OC)c1OC (configuration not stated)	i	0.39
O=C(NCCc1cccs1)C1CC(c2cccc([N+](=O)[O-])c2)=NO1 (configuration not stated)	i	-0.26
Cc1ccc(C2CCN(C(=S)Nc3cccc(Cl)c3)C2)cc1 (configuration not stated)	i	-0.79
Fc1ccc(CSc2ncnc3sc4c(c23)CCCC4)cc1	i	-0.68
COc1ccc(/C(O)=C2/C(=O)C(=O)N(Cc3cccnc3)C2c2ccco2)cc1OC (configuration not stated)	i	-1.3
CCn1c(SCC(=O)Nc2nc(-c3ccccc3)cs2)nc2c1c(=O)n(C)c(=O)n2C	i	-2.3
Cc1cc(C(=O)COC(=O)c2ccccc2O)c(C)n1Cc1cccs1	i	-1.5
O=C(CCN1CCCCC1)NNC(=S)NC(=O)c1ccc(Br)cc1	i	-2.4
COc1ccc(S(=O)(=O)N2CCCC(C(=O)NCc3ccncc3)C2)cc1 (configuration not stated)	i	1.9
O=C1Nc2ccccc2/C1=N/N=C/c1ccc(-c2ccc([N+](=O)[O-])cc2)o1	i	0.53
OCn1ncn(-c2ccccc2)c1=S	i	1.1
COc1ccccc1CCNC(=O)c1csc2c1CCCC2	i	0.07
CCCCCc1cc(=O)oc2c(C(CCN3CCCC(C)C3)c3ccc(N(C)C)cc3)c(OC)cc(OC)c12 (configuration not stated)	i	-0.33
COc1ccc(/C=C2/C(=O)ON=C2C)cc1Br	i	2.2
CC(=O)c1cn(CCOc2ccc(F)cc2)c2ccccc12	i	0.16
O=C(CN1C(=O)C2CC=CCC2C1=O)Nc1nnc(SCc2c(Cl)cccc2Cl)s1 (configuration not stated)	i	-1.1
CCc1nnc(NC(=O)c2ccc(S(=O)(=O)N3CCCc4ccccc43)cc2)o1	i	-1.4
CC(C)CN1C(=O)NC(NS(=O)(=O)c2ccc(N)cc2)(C(F)(F)F)C1=O (configuration not stated)	i	-0.15
O=C(CCOc1ccccc1)NCc1ccccc1	i	0.75
O=C(COn1nnc2ccc(S(=O)(=O)N3CCOCC3)cc21)Nc1c(F)c(F)c(F)c(F)c1F	i	2.5
COc1ccc(NC(=S)N2CCN(S(=O)(=O)c3ccccc3)CC2)cc1	i	-0.15
CCOc1ccccc1C1N=C(c2ccc(OC)cc2)CC(c2ccccc2O)N1 (configuration not stated)	i	1.1
c1ccc(-n2nnnc2Oc2cccc3cccnc23)cc1	i	0.82
COc1ccccc1CNC(=O)c1ccc(NS(=O)(=O)c2cccs2)cc1	i	-0.34
Cc1ccc(Cl)cc1NC(=O)C[n+]1ccc(Cc2ccc([N+](=O)[O-])cc2)cc1	i	-1.6
O=C(Cn1cccc1C(=O)c1ccccc1)NCc1ccc(Cl)cc1	i	-0.12
CCC(=O)N(CCC(c1ccccc1)c1ccco1)Cc1cccs1 (configuration not stated)	-14*	0.26*
Cc1ccc2sc(NNC(=O)c3cc(=O)c4ccccc4o3)nc2c1C	i	-2.5
CC(C)(C)n1nc2c(c1NC(=O)COc1ccc3ccccc3c1)CS(=O)C2 (configuration not stated)	i	-1.7
Cc1cc(OCC(=O)N[C@@H](Cc2ccccc2)c2nc3ccccc3[nH]2)ccc1Cl	i	0.48
Cc1oc(C)c(C(=O)NCCCC(=O)O)c1C(=O)NCCCC(=O)O	i	-0.04
CCc1ccc(/C=C2/SC(=S)N(CCCC(=O)Nc3ccccc3C(=O)O)C2=O)cc1	i	-1.5
Cc1cc(-c2nnc(SCC(=O)Nc3ccccn3)o2)no1	i	1.9
O=C(N=Nc1c(O)[nH]c2ccccc12)c1cc(-c2cccs2)[nH]n1	i	1.3

7 compounds out of the list, sorted by formula weight, falling.
SMILES	KCNQ2 inh	KCNQ2 inh baseline
CCc1ccc(/C=C2/SC(=S)N(CCCC(=O)Nc3ccccc3C(=O)O)C2=O)cc1	i	-1.5
CC(C)(C)n1nc2c(c1NC(=O)COc1ccc3ccccc3c1)CS(=O)C2 (configuration not stated)	i	-1.7
Cc1ccc2sc(NNC(=O)c3cc(=O)c4ccccc4o3)nc2c1C	i	-2.5
Cc1oc(C)c(C(=O)NCCCC(=O)O)c1C(=O)NCCCC(=O)O	i	-0.04
CCC(=O)N(CCC(c1ccccc1)c1ccco1)Cc1cccs1 (configuration not stated)	-14*	0.26*
O=C(N=Nc1c(O)[nH]c2ccccc12)c1cc(-c2cccs2)[nH]n1	i	1.3
Cc1cc(-c2nnc(SCC(=O)Nc3ccccn3)o2)no1	i	1.9

Screening results from PubChem BioAssay.

The list is partial; the hit share may differ from the screen's.
